# NS1 function inh: influenza NS1 inhibition | S. cerevisiae slowed by influenza A NS1, growth recovery by OD600 | Potency, µM (doses to about 46.1 µM), for inactives: at the highest dose activity, positive = more growth | 270,000 tested, 0.4% active; active means well fitted rising curve with a large enough effect; inconclusive means small, poorly fitted or top-dose-only effect; inactive means no such curve, though single readings can be large or run the other way; note: nearly all actives have a fitted effect of over 50% in size
#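 Read-out: OD600 growth recovery of NS1-expressing budding yeast. Cells grown overnight at 30C in -URA glucose medium, washed, resuspended and diluted 1:100 in 2% galactose assay medium, pH 6.0. Same strain lacking NS1 served as positive control.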
# Lassa entry inh: inhibitors of Lassa virus binding or cell entry; Lassa virus pseudotype entry inhibition, cell reporter; control for the full effect not named in the record; Potency, µM (top dose mostly 37.9 µM), without a hit: at the top dose activity change, negative = inhibition, hits mostly inhibitors; 300,000 tested, 1.2% active; AID 540256; active means well fitted inhibition curve with a large enough effect; inconclusive means small, poorly fitted or top-dose-only effect, or effect the other way; inactive means flat fitted curve, though single readings scatter; tested in HEK293 cells; note: % is set by controls: 0 for no effect and ±100 for the full control effect; nearly all actives have a fitted effect of over 50% in size; luciferase read-out
# SARS PLP yeast: SARS-CoV PLP inhibition in yeast | 330,000 tested, 0.19% active | Potency, µM (titrated, usually from 32.9 µM), inactives show at the top dose activity, positive = growth rescue | S. cerevisiae expressing SARS-CoV PLpro, growth rescue; control for the full effect not named in the record; active means well fitted rising curve with a large enough effect; inconclusive means small, poorly fitted or top-dose-only effect; inactive means no such curve, though single readings can be large or run the other way; note: 0% is about no effect; nearly all actives have a fitted effect of over 55% in size; growth read by luminescence after 48 h
# MARV entry inh: blocks Marburg virus binding to or entry into cells. Marburg virus pseudotyped entry inhibition, cell reporter; control for the full effect not named in the record; about a third of the inactives were read at about 46 µM. 300,000 tested, 1.8% active. Potency, µM (series often up to 37.8 µM), inactives show at the top dose activity change, negative = inhibition, actives largely listed as inhibitors; active = well fitted inhibition curve with a large enough effect; inconclusive = small, poorly fitted or top-dose-only effect, or effect the other way; inactive = flat fitted curve, though single readings scatter; tested in HEK293 cells; about a fifth of its hits are not listed in these tables; note: % is set by controls: 0 for no effect and ±100 for the full control effect; luciferase read-out
# Cruzain inh noDet: cruzain (T. cruzi) inhibition without detergent; P25779; purified cruzain, Z-FR-AMC fluorescence, no detergent; Potency, µM, for inactives: max response, negative = inhibition, hits mostly inhibitors; 200,000 tested, 2.3% active; AID 1476;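 note: plate controls were enzyme without inhibitor for no effect and buffer without enzyme for full effect; nearly all actives have a fitted effect of over 40% in size; top concentration of the series not given in the record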
# Target sequence (P25779 123-467 limits assumed): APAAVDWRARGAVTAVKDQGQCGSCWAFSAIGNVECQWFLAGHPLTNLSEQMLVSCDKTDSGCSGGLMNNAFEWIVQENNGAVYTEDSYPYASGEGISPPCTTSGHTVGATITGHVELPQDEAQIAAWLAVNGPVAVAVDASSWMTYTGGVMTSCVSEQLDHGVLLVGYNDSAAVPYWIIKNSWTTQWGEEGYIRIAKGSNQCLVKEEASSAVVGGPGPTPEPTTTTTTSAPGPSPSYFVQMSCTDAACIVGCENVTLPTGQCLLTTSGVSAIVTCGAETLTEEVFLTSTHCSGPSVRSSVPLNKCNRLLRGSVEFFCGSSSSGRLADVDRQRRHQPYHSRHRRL
#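 Purified cruzain at 1.5 nM, pre-incubated 15 min with compound at room temperature in 100 mM sodium acetate pH 5.5, 5 mM DTT, 0.00005% Triton X-100. Reaction started with 2 uM Z-FR-AMC; AMC fluorescence increase over 60 s gives rate.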
# Cruzain inh Det: cruzain (T. cruzi) inhibition with detergent | P25779 | Potency, µM, for inactives: max response, negative = inhibition, usual class: inhibitors | purified cruzain, Z-FR-AMC fluorescence, 0.01% Triton | 200,000 tested, 0.43% active;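 note: plate controls were neutral wells for no effect and buffer without enzyme for full effect; nearly all actives have a fitted effect of over 40% in size; top concentration of the series not given in the record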
#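 Enzyme 1.5 nM, Z-FR-AMC 2 uM, NaOAc 100 mM pH 5.5, DTT 5 mM, Triton X-100 0.01%; 15 min RT compound preincubation; kinetic ex360/em450, 60 s delta.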
# 2A StopGo: FMDV 2A StopGo reporter, luciferase signal. human cells with a luciferase reporter of 2A StopGo recoding; control for the full effect not named in the record. Potency, µM (series often up to 57.9 µM), without a hit: at the highest dose signal change, negative = less light. 410,000 tested, 1.2% active. AID 1159524; active = well fitted falling curve with a large enough effect; inconclusive = small, poorly fitted or top-dose-only effect; inactive = no such curve, though single readings can be large or run the other way; tested in HEK293T cells; note: % is set by controls: 0 for no effect and ±100 for the full control effect; nearly all actives have a fitted effect of over 45% in size; luciferase light after 4 h
# RE007 growth inh: less growth of the S. pombe RE007 Vpr strain; S. pombe RE007 Vpr strain, BacTiter-Glo ATP luminescence, 24 h; control for the full effect not named in the record; Potency, µM (doses to about 92.2 µM), without a hit: at the highest dose activity change, negative = less growth; 360,000 tested, 0.21% active; active = well fitted falling curve with a large enough effect; inconclusive = small, poorly fitted or top-dose-only effect; inactive = no such curve, though single readings can be large or run the other way;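 note: % is set by controls: 0 for no effect and ±100 for the full control effect; nearly all actives have a fitted effect of over 50% in size; the assay follows cell death caused by Vpr and the record does not say whether a fall means rescue or toxicity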
#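 Fission yeast strain RE007, carrying one chromosomally integrated HIV-1 vpr copy, was seeded at OD 0.01 in PMG+AL medium with 23 nL pinned compound. After 24 h at 30 °C and 99% humidity, viability was read by BacTiter-Glo luminescence.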
# * hit, by the source's call; u = inconclusive; x = not tested or not shown; & = joins results of further samples; [ ] = dose if it differs, or a comment. Unless noted, calls come from the whole dose curve; as a rule, active = well fitted curve in the direction sought with a large enough effect; inconclusive = small, poorly fitted or top-dose-only effect, or another doubt; inactive = no such curve, though single readings can be large; an effect the other way counts as inactive or inconclusive. Potency is the fitted concentration of half-maximal effect.
smiles,SARS PLP yeast,RE007 growth inh,NS1 function inh,Lassa entry inh,Cruzain inh Det,MARV entry inh,2A StopGo,Cruzain inh noDet
Cc1cc(C)cc(OCc2ccc(C(=O)O)o2)c1,-3.6%,3.2%,-16.1%,7.9%,13.5%,11.4%,24.7%,-3.2%
O=C(NC1CCCCCCC1)NC1CCCCC1,5.4%,-2.0%,-4.5%,u,-3.9%,3.6%[46.1 µM],0.0%,2.1%
Cc1nn(CC(=O)NCCc2ccccc2)c(=O)c2nn(-c3ccccc3)c(C)c12,x,x,x,16.2%[46.1 µM],-2.4%,x,13.7%,3.1%
O=C(CSc1nnnn1-c1ccccc1)Nc1ncc(Cc2cccc(Cl)c2Cl)s1,3.1%,-0.5%,18.0%,5.0%,0.3%,-8.2%,-13.1%,u
Cc1nccn1-c1c2c(c(C#N)c3nc4ccccc4n13)CCC2,-1.4%,-0.7%,-6.0%,14.3%,-0.8%,-3.8%,-23.3%,-2.6%
Cc1ccc(Nc2nc(CSc3nnnn3-c3ccccc3)cc(=O)[nH]2)cc1,2.8%,2.1%,-12.7%,-24.7%,-4.9%,u,u,7.2%
COc1ccccc1NC(=O)CN1CCN(CC(=O)Nc2ccccc2Cl)CC1,-0.4%,-1.0%,4.8%,u,x,19.3%,-0.6%,x
COCCCn1c(=N)c(S(=O)(=O)c2ccccc2)cc2c(=O)n3cccc(C)c3nc21,x,x,x,1.1%[46.1 µM],-1.7%,3.0%[46.1 µM],-1.9%,-1.0%
CCOC(=O)C1C(=O)NC(c2ccccc2)=NC1c1ccc(F)cc1 (stereo not given),-0.8%,14.7%,0.0%,11.1%,-6.5%,23.7%,0.0%,3.6%
O=C(Cn1c(=O)c2cccn2c2ccc(F)cc21)N1CCN(c2ccccc2)CC1,x,x,x,1.6%[46.1 µM],-5.0%,x,0.0%,-2.1%
O=C(Nc1noc2ccccc12)c1cccc(F)c1,x,x,x,u,-4.3%,u,-9.9%,-8.5%
CCN(CC)c1nc2ccccc2n2cnnc12,5.3%,-15.0%,-18.9%,4.7%,-2.6%,-13.3%,-9.0%,5.6%
COc1ccc(S(=O)(=O)N2CCC(C(=O)Nc3cc(C(F)(F)F)ccc3Cl)CC2)cc1,x,x,x,-27.8%[46.1 µM],-6.1%,u,-22.1%,1.3%
Cc1ccc(NC(=O)N2CCN(C(=O)c3nsc4ccccc34)CC2)cc1C,x,x,x,12.3%[46.1 µM],-6.9%,x,-3.6%,-9.8%
COc1ccc(CCNC(=O)C(=O)NCC(c2ccco2)S(=O)(=O)c2ccc(F)cc2)cc1 (stereo not given),x,x,x,u,-1.1%,x,u,8.9%
CC(C)[C@H]1C(=O)Nc2ccccc2N1C(=O)N[C@@H](Cc1ccccc1)C(=O)N[C@H](C(=O)O)c1ccccc1,0.6%,-11.6%,u,x,x,x,-9.7%,x
COc1ccc(NS(=O)(=O)c2cccs2)cc1S(=O)(=O)N1CCCCC1,1.8%,1.0%,x,10.1%,x,-3.6%,12.3%,x
Cc1ccc(CNC(=O)C2CCCN(c3nc4c(C)cc(C)cc4s3)C2)cc1 (stereo not given),x,x,x,x,1.0%,-12.9%[46.1 µM],0.7%,0.3%
Cc1cc(=O)oc2cc(OCC(=O)Nc3ccccc3C(=O)O)ccc12,0.4%,0.1%,6.6%,-0.3%,x,-0.4%[46.1 µM],59.1%[activator],x
O=C(NCc1cccnc1)c1ccc(Cl)c(S(=O)(=O)N2CCOCC2)c1,-3.4%,1.0%,-0.7%,-1.1%,x,8.0%,-1.2%,x
CC(=O)NC(Cc1ccccc1)Cc1ccccc1,0.8%,10.9%,0.6%,u,x,u,-1.6%,x
COc1cc(-c2nnc3n2N=C(c2ccccc2)CS3)cc(OC)c1OC,-0.6%,-0.2%,-10.1%,u,-3.0%,u,u,-11.3%
Cc1cccc(Sc2c([N+](=O)[O-])ncn2C)c1,5.3%,0.5%,23.5%,u,6.0%,u,u,-7.7%
O=C(CC(c1ccccc1)c1ccccc1)Nc1nn[nH]n1,6.5%,-7.3%,x,4.3%,x,-4.0%[46.1 µM],9.1%,x
Cc1nc(N2CCN(Cc3ccccc3)CC2)nc2c1C(=O)CC(C)C2 (stereo not given),-0.6%,7.3%,4.8%,u,0.1%,-25.4%,u,-1.8%
Cc1ccc(N(CCO)C(=S)Nc2ccccc2)cc1,-0.3%,-15.2%,3.2%,u,x,10.3%[46.1 µM],6.6%,x
CN(C)CCCn1c(=O)n(Cc2ccco2)c(=O)c2c3c(sc21)CCCCC3,0.6%,4.1%,3.3%,u,x,u,-23.4%,x
Clc1ccc2nc(-c3ccncc3)cc(-c3ccccc3)c2c1,-7.8%,3.2%,11.6%,6.1%,-4.8%,-4.4%,u,0.6%
CC(C)CN(C(=O)COC(=O)c1ccc2ccccc2c1)c1c(N)n(Cc2ccccc2)c(=O)[nH]c1=O,5.2%,12.5%,x,u,x,-9.8%[46.1 µM],-13.9%,x
CCN(CC)CCNC(=O)c1ccccc1N,-2.1%,12.6%,9.7%,1.2%,-3.9%,0.6%&0.6%,3.4%,3.3%
COc1cccc(N2C(=O)CN(Cc3cc(OC)c(OC)c(OC)c3)C2=S)c1,-2.4%,-5.9%,5.7%,u,x,-23.3%[46.1 µM],-15.4%,x
CCN(C(=O)c1cc2c(=O)oc3ccc(C)cc3c2s1)c1ccccc1F,x,x,x,4.6%[46.1 µM],0.9%,10.9%[46.1 µM],-7.9%,-12.7%
CCc1ccc(OCC(=O)OCC(=O)NCCNC(=O)COC(=O)COc2ccc(CC)cc2)cc1,-1.9%,-23.6%,3.9%,-5.5%,x,4.4%,0.0%,x
Cc1ccc(CNC(=O)c2cc3c(=O)n(Cc4cccnc4)ccc3nc2C)cc1,x,x,x,-13.3%[46.1 µM],-1.3%,x,-16.1%,3.4%
O=C(COC(=O)c1cccnc1Nc1cccc(C(F)(F)F)c1)NCCN1C(=O)CSC1=O,-3.6%,-2.9%,3.8%,-23.6%,-13.7%,-19.5%&-19.5%,u,u
S=C(NCCc1ccc(Cl)cc1)NC1CCCCC1,-12.0%,-8.5%,-122.5%,u,x,u,6.8%,x
CCCCOC(=O)Cn1c(=N)n(CCN2CCOCC2)c2ccccc21,x,9.1%,11.9%,-2.2%,x,1.1%,-16.8%,x
COc1ccc(CCN2CC(C(=O)Nc3ccc(S(C)(=O)=O)cc3)CC2=O)cc1OC (stereo not given),3.5%,4.0%,x,0.1%,x,1.7%,-14.8%,x
CN1CCN(NC(=S)Nc2ccc(OC(F)F)cc2)CC1,-0.7%,1.4%,x,x,x,5.2%[46.1 µM],6.0%,x
Nc1cccc2cc(S(=O)(=O)O)ccc12,x,0.4%,x,17.5%[46.1 µM],x,u,0.6%,x
Nn1c(SCc2nc3ccccc3[nH]2)nnc1C1CCCCC1,-6.2%,-14.6%,3.7%,2.1%,-0.9%,-11.4%,-7.2%,12.2%
Cc1cc(C)nc(NS(=O)(=O)c2ccc(NC(=O)CCCN3C(=O)c4ccccc4C3=O)cc2)n1,0.8%,-6.0%,12.6%,-7.7%,-2.7%,7.6%,x,-2.4%
CCOC(=O)c1cnc(-n2nc(C)cc2C)nc1Nc1ccc(C)cc1,2.7%,0.5%,15.7%,10.7%,0.6%,u,-15.1%,3.9%
CC1CCCCN1C(=S)Nc1ccc(OC(F)F)cc1 (stereo not given),-2.7%,5.3%,-15.4%,-30.7%,-1.8%,u,30.1%[activator],7.4%
CCOc1ccc(NC(=O)Cn2nc(Cc3ccncc3)c3ccccc3c2=O)cc1,x,x,x,17.4%[46.1 µM],-3.7%,u,-12.9%,1.3%
CC(C)(C)NC(=S)NC1CC1,0.8%,9.1%,0.1%,21.4%[46.1 µM],x,2.0%[46.1 µM],5.9%,x
CC(C)(C)NC(=O)CN(C(=O)c1ccc(Cl)nc1)c1cccc2ccccc12,-0.1%,-9.3%,-1.6%,0.3%[46.1 µM],x,-6.1%[46.1 µM],6.2%,x
O=C(Nc1ccc2c(c1)OCO2)C1CC(c2c(F)cccc2Cl)=NO1 (stereo not given),9.2%,-0.6%,-42.3%,u,-5.5%,13.6%,x,-11.8%
C=CCOc1ccc(/C=C/C(=O)OCC(=O)NC(C)c2ccc(F)cc2)cc1 (stereo not given),-1.5%,-3.9%,x,u,x,-19.5%[46.1 µM],-11.0%,x
Cc1cc(C)cc(N(C(C)C(=O)N2CCCCC2)S(C)(=O)=O)c1 (stereo not given),-5.3%,-7.6%,6.3%,2.7%,1.4%,2.0%,-7.6%,-0.7%
c1csc(-c2nc(NCC3CCCO3)c3ccccc3n2)c1 (stereo not given),-11.1%,-7.0%,-43.7%,-4.6%[46.1 µM],x,10µM*,-25.5%,x
CCc1ccc2nc(N3CCC(C(=O)NCCC(C)C)CC3)sc2c1,x,x,x,u,-5.0%,u,27.1%,-1.3%

# Single records, from the list above. Order of values: SARS PLP yeast, RE007 growth inh, NS1 function inh, Lassa entry inh, Cruzain inh Det, MARV entry inh, 2A StopGo, Cruzain inh noDet
# Results for Cc1ccc(N(CCO)C(=S)Nc2ccccc2)cc1 : -0.3%, -15.2%, 3.2%, u, x, 10.3%[46.1 µM], 6.6%, x
# Results for CC(C)(C)NC(=O)CN(C(=O)c1ccc(Cl)nc1)c1cccc2ccccc12 : -0.1%, -9.3%, -1.6%, 0.3%[46.1 µM], x, -6.1%[46.1 µM], 6.2%, x
# Results for CCCCOC(=O)Cn1c(=N)n(CCN2CCOCC2)c2ccccc21 : x, 9.1%, 11.9%, -2.2%, x, 1.1%, -16.8%, x
# Results for Clc1ccc2nc(-c3ccncc3)cc(-c3ccccc3)c2c1 : -7.8%, 3.2%, 11.6%, 6.1%, -4.8%, -4.4%, u, 0.6%
